Compound activity (PubChem BioAssay)
gsp antagonist – qHTS for Antagonists of gsp, the Etiologic Mutation Responsible for Fibrous Dysplasia/McCune-Albright Syndrome: qHTS | gsp-mutant cells, cAMP HTRF, 30 min; control for the full effect not named in the record | Potency, µM (titrated, usually from 76.9 µM), without a hit: top-dose activity change, negative = inhibition, most hits filed as inhibitors | 340,000 compounds, 0.4% hits | AID 624288, 2012; active = falling curve of any shape with a large fitted effect; inconclusive = falling curve, mostly with a smaller effect; inactive = flat or rising curve; cell line not stated here;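 further: intracellular cAMP measured with PDE inhibitor Ro 20-1724 present during compound exposure; potency means the concentration at half of the fitted maximal effect; on the % scale 0 is the no-effect control and ±100 the full control effect; nearly all actives have a fitted effect of over 65% in size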
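Measurement of cellular cAMP by homogeneous time-resolved fluorescence following a 30 min compound exposure at 37C. The PDE inhibitor […] was present throughout; the assay buffer was DPBS with 0.05% BSA and 0.005% Tween 20.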
ClpP mod – qHTS Assay for Activators of ClpP; Potency, µM (doses to about 57.5 µM), for inactives: at the top dose activity change, negative = active; 340,000 compounds, 1.9% hits; ATP-dependent Clp protease proteolytic subunit (Bacillus subtilis (strain 168)), P80244; purified B. subtilis ClpP, FRET peptide cleavage, 20 min; active = well fitted falling curve with a large enough effect; inconclusive = small, poorly fitted or top-dose-only effect; inactive = no such curve, though single readings can be large or run the other way; further: potency means the concentration at half of the fitted maximal effect; the source files actives as falling curves though it sought activators and does not explain the sign; nearly all actives have a fitted effect of over 65% in size; many hits overshoot -100%
Target sequence (P80244 whole entry, looked up): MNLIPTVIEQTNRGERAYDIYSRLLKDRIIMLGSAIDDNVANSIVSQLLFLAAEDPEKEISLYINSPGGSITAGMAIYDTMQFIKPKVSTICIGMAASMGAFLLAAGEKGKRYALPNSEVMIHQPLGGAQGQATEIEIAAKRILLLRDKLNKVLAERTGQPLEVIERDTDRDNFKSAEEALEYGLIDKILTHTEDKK
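Purified B. subtilis ClpP, 10 microg/mL final in Tris/HCl pH8 with KCl, BSA, glycerol and Tween-20, cleaved an Abz/nitrotyrosine-quenched decapeptide. Fluorescence (ex 320, em 430) was read at 0 and 20 min at room temperature. Delta was normalized to 5.8 microM ADEP and DMSO/no-enzyme controls.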
gsp agonist – qHTS for Agonist of gsp, the Etiologic Mutation Responsible for Fibrous Dysplasia/McCune-Albright Syndrome: qHTS; 340,000 compounds, 0.13% hits; AID 624287, 2012; gsp mutant cells, cAMP HTRF, 30 min; control for the full effect not named in the record; Potency, µM (doses to about 76.9 µM), for inactives: top-dose activation (cAMP increase), most hits filed as activators; active = well fitted activation curve with a large enough effect; inconclusive = small, poorly fitted or top-dose-only effect, or another doubt; inactive = no such curve, though single readings can be large or run the other way; cell line not stated here;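 further: phosphodiesterase inhibitor Ro 20-1724 added with compounds to block cAMP breakdown; potency means the concentration at half of the fitted maximal effect; nearly all actives have a fitted effect of over 60% in size; about a fifth of the inactives were tested at one dose only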
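Cells in DMEM/10% FBS with G418 were pretreated with compounds in DMSO plus […] (300 uM stock) for 30 min at 37C. cAMP was measured by HTRF (cAMP-d2 plus anti-cAMP antibody-K) after 30 min at room temperature.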
CtBP-E1A blk – qHTS Assay for Inhibitors of the CtBP/E1A Interaction; CtBP / adenovirus E1A interaction (AlphaScreen); AlphaScreen GST-E1A/His-CtBP binding, 1536-well; hits give low values; control for the full effect not named in the record; activity change, % (concentration not given with the values); 340,000 compounds, 0.49% hits; AID 651724, 2012; in the data active means activity change below about -65%; inconclusive means about -30% to -65%; inactive means above about -30%; further: on the % scale 0 is the no-effect control and ±100 the full control effect
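Homogeneous bead-based format: GST-tagged E1A captured on glutathione donor beads, His-tagged CtBP on nickel acceptor beads; compounds precede bead addition by 2 h at 37 °C.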
TRPV1 PAM – HTS Assay for Compounds that Act as Potentiators of the Vanilloid Receptor 1 | Transient receptor potential cation channel subfamily V member 1 (Homo sapiens), Q8NER1 | TRPV1-expressing cells, Fluo-8 calcium influx, capsaicin EC20 potentiation; host cell line not named in the record; control for the full effect not named in the record | potentiation, % at 8.33 µM | 320,000 compounds, 0.02% hits | AID 540277, 2011; active means potentiation above 80%; inconclusive means 30% to 80%; inactive means below 30%; further: 0% is about no effect
Target sequence (Q8NER1 whole entry, looked up): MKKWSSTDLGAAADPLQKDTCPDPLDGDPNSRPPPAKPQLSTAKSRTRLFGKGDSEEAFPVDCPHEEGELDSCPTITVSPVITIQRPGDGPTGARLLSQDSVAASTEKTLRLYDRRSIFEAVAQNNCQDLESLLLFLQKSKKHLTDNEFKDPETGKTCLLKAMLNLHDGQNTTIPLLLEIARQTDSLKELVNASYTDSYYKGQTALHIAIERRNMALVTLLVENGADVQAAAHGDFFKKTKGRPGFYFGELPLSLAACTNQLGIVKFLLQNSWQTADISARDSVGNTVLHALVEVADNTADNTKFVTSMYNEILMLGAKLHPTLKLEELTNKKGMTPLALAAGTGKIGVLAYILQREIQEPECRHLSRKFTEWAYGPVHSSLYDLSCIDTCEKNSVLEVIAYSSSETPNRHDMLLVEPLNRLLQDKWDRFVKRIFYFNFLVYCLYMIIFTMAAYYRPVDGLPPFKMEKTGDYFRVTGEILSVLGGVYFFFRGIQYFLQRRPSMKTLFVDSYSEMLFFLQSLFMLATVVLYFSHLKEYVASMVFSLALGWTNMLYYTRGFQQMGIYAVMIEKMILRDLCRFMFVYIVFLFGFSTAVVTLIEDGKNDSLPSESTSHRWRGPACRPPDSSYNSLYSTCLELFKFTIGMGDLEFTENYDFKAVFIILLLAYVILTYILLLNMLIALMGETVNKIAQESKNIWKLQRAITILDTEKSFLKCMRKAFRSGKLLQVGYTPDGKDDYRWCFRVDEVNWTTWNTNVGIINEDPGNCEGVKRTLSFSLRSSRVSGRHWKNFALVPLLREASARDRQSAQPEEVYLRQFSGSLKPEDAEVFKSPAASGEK
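Fluo-8 calcium influx in TRPV1-expressing cells, kinetic read (ex 480/em 520 nm). Compound added and read 3 min for agonist activity, followed by capsaicin at EC20 final and 2 min further read for enhancement.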
Sfp inh – qHTS Assay for Inhibitors of Bacillus subtilis Sfp phosphopantetheinyl transferase (PPTase); 310,000 compounds, 3.5% hits; 4'-phosphopantetheinyl transferase ffp (Bacillus subtilis), Q9F4F7; AID 1490, 2009; Potency, µM, without a hit: max response, negative = inhibition, actives largely listed as inhibitors; Biochemical Sfp PPTase activity, qHTS; active means well fitted inhibition curve with a large enough effect; inconclusive means small, poorly fitted or top-dose-only effect, or another doubt; inactive means no such curve, though single readings can be large or run the other way;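 further: the enzyme is Sfp with the accession as filed and its product quenches rhodamine fluorescence; potency means the concentration at half of the fitted maximal effect; 0% = enzyme reaction without inhibitor and -100% = no enzyme wells; top concentration of the series not given in the record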
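With Hepes-Na pH 7.6 buffer containing 10 mM MgCl2, Sfp (15 nM) modified BHQ-2-YbbR (12.5 uM) using rhodamine-CoA (5 uM). Two reads 30 minutes apart at 525/598 nm yielded each well's rate.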
Menin-MLL FL inh – qHTS Assay for Inhibitors Targeting the Menin-MLL Interaction in MLL Related Leukemias: Competition With Fluorescein Labeled MLL-derived Peptide; Fluorescence polarization, fluorescein-MLL peptide displacement from menin; FP activity change, % at 61.4 µM; 290,000 tested, under 10 active; inconclusive = falling polarisation curve, or a change in total fluorescence; inactive = total fluorescence flat and polarisation flat or rising; no compound was filed as active; the % refers to the polarisation; negative = inhibition;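 further: % of control where 0% means no effect; inhibitors lower the polarisation; unlabelled MLL peptide was the positive control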
* hit, by the source's call; ? = inconclusive; nt = no result given; [ ] = dose if it differs, or a comment.

SMILES	gsp antagonist	ClpP mod	gsp agonist	CtBP-E1A blk	TRPV1 PAM	Sfp inh	Menin-MLL FL inh
CCc1nc(NC(=O)NS(=O)(=O)c2ccccc2C(=O)OC)nc(OC)n1	5%	0.7%	-10%	nt	2	-7%	4.9
CC(=O)c1cc2c(cc1NC(=O)CCn1cccc1)OCO2	-2%	-4.7%	-17%	-1	7	50µM*	-11
CC12CCC(CC1=O)C2(C)C (centres undefined)	3%	-0.4%	3%	1	-6	nt	nt
CCNC(=S)N1CCC(C(O)(c2ccccc2)c2ccccc2)CC1	-5%	nt	11%	2	27	19%	-2.6
COc1cc(CC(=O)OCC(=O)NCc2ccc(C)cc2)cc(OC)c1OC	-1%	-1.9%	-15%	0	-2	nt	nt
O=C(O)c1cccc(-n2c(/C=C/c3cccc([N+](=O)[O-])c3)nc3ccccc3c2=O)c1	-37%	nt	?	-28	21	-3%	-3.2
Cc1nc(SCC(=O)NCC2CCCO2)c2c3c(sc2n1)CCCC3 (centres undefined)	7%	nt	41%[15.4 µM]	-16	6	18%	5.0
COc1ccc(NC(=O)COC(=O)C2CC(=O)N(c3ccc(C)cc3)C2)cc1 (centres undefined)	11%	nt	14%	2	11	10%	-23
CCc1ccc(CNC(=O)CC2C(=O)NCCN2Cc2ccccc2F)nc1 (centres undefined)	16%	-3.7%	19%	-8	11	15%	-0.1
Cc1cccc(NC(=O)/C(=C/c2cccc([N+](=O)[O-])c2)NC(=O)c2cccs2)c1	9%	1.6%	-33%[inhibitor]	-17	-1	14%	8.1
COc1ccccc1N(C)S(=O)(=O)c1ccc(Cl)c(C(=O)N2CCC2)c1	13%	18µM*	-12%[15.4 µM]	11	0	nt	nt
COc1ncnc2c1ncn2CCCNCc1ccc(C)o1	nt	-4.1%	?	-1	nt	nt	nt
C[C@@H]1CN([C@H](C)CO)C(=O)c2cc(NC(=O)Nc3ccc(C(F)(F)F)cc3)ccc2O[C@H]1CN(C)S(=O)(=O)c1cccs1	7%	-8.4%	nt	-10	nt	nt	nt
CCCS(=O)(=O)N1CCN(C(=O)c2ccccc2F)CC1	3%	0.0%	-15%	-2	-3	14%	2.1
COc1ccc(Cl)cc1NC(=O)CCS(=O)(=O)c1ccc(Br)cc1	3%	1.0%	-21%	3	6	13%	9.0
O=C(C1COc2ccccc2O1)N1CCN(c2nc3ccc([N+](=O)[O-])cc3s2)CC1 (centres undefined)	2%	-1.7%	16%	-6	9	nt	nt
COc1ccc2[nH]c(C(=O)NCc3ccc4c(c3)OCO4)cc2c1	-3%	0.2%	6%[15.4 µM]	-19	-14	-15%	6.8
C=CCOC(=O)c1ccc(-n2cncn2)nc1	1%	-1.3%	-1%	-2	8	-8%	3.7
COc1ccccc1OCC(=O)Nc1ccc(S(=O)(=O)Nc2nc(C)cc(C)n2)cc1	-22%	-0.1%	-43%[inhibitor]	2	-4	7%	3.6
COc1cc(OC)c(OC)cc1CNCC1COc2ccccc2O1 (centres undefined)	-2%	-1.4%	-34%[inhibitor]	nt	nt	nt	nt
NC(=O)CSc1nnc(-c2ccco2)n1N	2%	-0.1%	12%	44	1	1%	1.0
Cc1ccc(-c2nc3ccc([N+](=O)[O-])cc3[nH]2)cc1	?	-0.1%	18%	nt	8	10%	-2.1
COc1cccc(C2CC(c3ccccc3)=NN2S(=O)(=O)c2ccccc2)c1OC (centres undefined)	2%	nt	-7%[15.4 µM]	-7	0	-2%	0.8
CC1(C)CN(c2ccc(F)cc2)C1=O	5%	nt	15%[15.4 µM]	2	25	13%	-0.9
COc1ccc(-n2cnnc2SCC(=O)N(C)c2ccccc2)cc1	9%	nt	-4%	-11	22	18%	-0.5
SMILES	gsp antagonist	ClpP mod	gsp agonist	CtBP-E1A blk	TRPV1 PAM	Sfp inh	Menin-MLL FL inh
O=C(O)/C(=C\c1ccco1)NC(=O)c1ccc(Br)o1	8%	0.9%	-20%	nt	nt	nt	nt
COc1ccc(NS(=O)(=O)c2ccc3oc4ccccc4c3c2)cn1	-25%	-2.1%	2%	-19	6	56µM*	0.9
Fc1ccc(N2CCN(C3CCC(c4ccccc4)CC3)CC2)cc1 (centres undefined)	6%	-0.7%	10%	-8	12	8%	-3.2
O=C(Nc1nnc(C2CC2)s1)c1cc(-c2ccccc2)nn1-c1ccccc1	-16%	-20%	-27%	-2	6	-4%	-5.5
CN(C)C(=O)c1ccc(-c2cc3onc(-c4ccccc4)c3c(=O)n2C)cc1	-23%	0.5%	nt	-2	nt	nt	nt
COc1ccc(CN2CCOC2=O)cc1OC	10%	nt	3%[15.4 µM]	3	0	17%	-1.8
CC(Sc1nnc(C2CC2)n1C)C(=O)Nc1ccc(N2CCOCC2)cc1 (centres undefined)	4%	-4.3%	-2%[15.4 µM]	-3	2	nt	nt
COc1cccc(CNC(=O)c2ccc(F)c(S(=O)(=O)N3CCCCC3)c2)c1	nt	-1.8%	-5%	0	nt	nt	nt
COCCNC(=O)/C(C#N)=C/c1cc(C(C)C)c(OC)cc1C	1%	-22%	11%[15.4 µM]	-19	-1	10%	0.4
O=C1CN(C(=O)COC(=O)c2cccs2)c2ccccc2N1	1%	1.2%	29%	nt	7	nt	nt
Cc1ccc(Cn2c(C(C)Nc3nc(-c4ccc(F)cc4)cs3)nc3cc(Cl)c(Cl)cc32)cc1 (centres undefined)	4%	-6.6%	nt	24	nt	nt	nt
CC(OC(=O)CCCCCN=C1NS(=O)(=O)c2ccccc21)C(=O)Nc1cc(Cl)cc(Cl)c1 (centres undefined)	-23%	-7.9%	15%	-8	11	31%[activator]	5.1
O=C(NCc1ccc2c(c1)OCO2)NC12CC3CC(CC(C3)C1)C2	-27%	-0.7%	14%[15.4 µM]	5	-7	15%	-4.5
CCOC(=O)C1CCN(C(=O)c2ccc(Cl)c(Cl)c2)CC1	2%	-0.7%	-1%	11	-7	-4%	2.4
COc1ccc2nc(NC(=O)c3cccs3)sc2c1	-9%	nt	-11%[15.4 µM]	1	-12	4%	3.5
CCN(CC)CCNC(=O)/C(=C/c1cn(CC)c2ccccc12)NC(=O)c1cc(OC)c(OC)c(OC)c1	12%	1.7%	11%	3	24	-17%	-4.1
O=C(NC1CC1)c1cccc2c1C(=O)c1ccc(N3CCC(Cc4ccccc4)CC3)cc1S2(=O)=O	-19%	-1.6%	30%	5	nt	nt	nt
COc1ccc(N2CCN(CCNC(=O)CCN3C(=O)COc4ccccc43)CC2)cc1	-5%	-3.3%	-2%	7	3	-1%	-1.9
COc1ccc(C(=O)NC(C)c2ccccc2)cc1Br (centres undefined)	3%	nt	7%	-2	0	7%	-2.0
COc1cc(O)sc1C=Nc1ccc(Cl)cc1	-6%	-4.1%	?	nt	14	0%	6.4
O=C(NC1CCN(S(=O)(=O)c2cccc(F)c2)CC1)c1cccc(F)c1	11%	0.1%	-2%	10	3	-2%	5.4
COc1cc(CC(=O)NCc2ccccn2)cc(OC)c1OC	-6%	-0.9%	-11%	4	2	14%	0.7
CN(Cc1ccccc1)C(=O)CNC(=O)Cn1cnc2ccccc2c1=O	7%	-0.3%	?	12	2	15%	0.2
CC(C)CCN1CCNC(=O)C1CC(=O)Nc1ccc(F)cc1 (centres undefined)	4%	1.7%	-48%[inhibitor]	-11	?	?	-3.4
COc1ccc(CN2C[C@]3(CO)O[C@@H](CO)C[C@@H]3S2(=O)=O)cc1	-1%	-0.2%	nt	3	nt	nt	nt
SMILES	gsp antagonist	ClpP mod	gsp agonist	CtBP-E1A blk	TRPV1 PAM	Sfp inh	Menin-MLL FL inh
O=C(c1ccco1)N(CCC(c1ccccc1)c1ccco1)Cc1ccccc1 (centres undefined)	-17%	nt	7%	0	-17	50µM*	7.7
C=CCNC(=S)NNC(=O)c1cccn(Cc2ccc(Cl)c(Cl)c2)c1=O	9%	124%	-21%	?	5	-8%	1.4
O=C(c1ccc(Br)o1)N1CCN=C1SCc1cccc(F)c1	7%	-3.9%	-13%	-2	-6	0%	-1.9
O=C1CCc2cc(S(=O)(=O)N3CCN(Cc4ccc5c(c4)OCO5)CC3)ccc2N1	5%	-2.8%	7%	0	-12	16%	3.4
Cc1cccc(N2CCN(C(=O)c3cc(S(=O)(=O)N4CCCC4)cn3C)CC2)c1C	-1%	0.5%	29%	-26	-27	-3%	2.0
Cc1nc(NC(=O)COC(=O)C(C)NC(=O)c2ccccc2)c(Cl)cc1Cl (centres undefined)	-14%	-2.1%	1%	nt	24	nt	nt
Cc1ccccc1C(=O)NCCOc1ccccc1Cl	6%	nt	-13%	6	-11	-1%	-6.0
CCN(CC)c1ccc(/C=N/NC(=O)c2nnn(-c3nonc3N)c2CN(C)C2CCCCC2)cc1	nt	-4.7%	-78%[inhibitor]	-8	nt	nt	nt
Cc1cc(C)c(OCC(=O)N(Cc2cccs2)C2CCS(=O)(=O)C2)c(C)c1 (centres undefined)	-16%	-12%	20%[15.4 µM]	11	-8	1%	-0.3
COc1ccccc1NC(=O)Cc1cccc2ccccc12	-7%	nt	?	4	-7	-1%	8.1
CCOc1ccc(-c2cc(C(=O)N/N=C/c3ccc(O)cc3)c3ccccc3n2)cc1	9%	nt	?	-4	nt	nt	nt
Cc1sc2ccccc2[n+]1CC(=O)c1ccccc1	-4%	0.6%	-14%	nt	-12	?	3.3
O=C(CSc1ncn[nH]1)Nc1nc(-c2ccccc2)cs1	-7%	0.5%	3%	5	9	-1%	14
Cc1ccc(S(=O)(=O)Nc2cccc(C(=O)NCC(c3ccco3)N(C)C)c2)cc1F (centres undefined)	-5%	0.9%	6%[15.4 µM]	3	22	nt	nt
COc1ccccc1OC(C)C(=O)Nc1ccc2c(c1)OCCO2 (centres undefined)	-4%	nt	-6%	-1	-6	15%	-8.0
